Bioassay records (PubChem BioAssay)
RECQ1 inh – blocks DNA unwinding by human RECQ1; P46063; RECQ1 DNA unwinding, red fluorescence kinetic read; Potency, µM (doses to about 57.3 µM), for the others: at the highest dose activity, negative = inhibition, most hits filed as inhibitors; 240,000 tested, 0.54% active; AID 2549;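 also: plate controls were vehicle for no effect and no enzyme for full effect; nearly all actives have a fitted effect of over 30% in size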
Target sequence (P46063 whole entry, looked up): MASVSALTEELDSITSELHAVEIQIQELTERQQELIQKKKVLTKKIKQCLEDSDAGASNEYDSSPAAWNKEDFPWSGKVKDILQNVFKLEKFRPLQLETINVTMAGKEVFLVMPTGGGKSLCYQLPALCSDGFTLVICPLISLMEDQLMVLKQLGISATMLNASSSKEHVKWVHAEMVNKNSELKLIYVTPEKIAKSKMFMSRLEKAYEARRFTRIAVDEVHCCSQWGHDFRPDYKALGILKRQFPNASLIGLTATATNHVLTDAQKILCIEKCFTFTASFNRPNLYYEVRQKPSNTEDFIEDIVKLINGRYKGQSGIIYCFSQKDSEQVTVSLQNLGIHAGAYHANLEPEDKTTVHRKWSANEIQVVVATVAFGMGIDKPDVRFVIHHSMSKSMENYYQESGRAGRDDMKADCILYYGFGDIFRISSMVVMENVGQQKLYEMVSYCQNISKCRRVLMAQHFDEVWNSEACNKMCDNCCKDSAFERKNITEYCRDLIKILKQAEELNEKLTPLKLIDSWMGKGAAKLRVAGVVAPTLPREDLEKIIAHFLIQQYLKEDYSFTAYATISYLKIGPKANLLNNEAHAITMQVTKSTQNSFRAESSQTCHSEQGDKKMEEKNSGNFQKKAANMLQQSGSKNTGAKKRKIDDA
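RECQ1T1 50 nM; forked duplex (20 bp + 30-nt ss tails) 200 nM, ATP 2 mM final; pH 8.0, 2 mM MgCl2, 2.5 ug/ml poly(dI-dC); 15 min compound preincubation; discontinuous kinetic read over 2 h at RT.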
Epigenetic derep – epigenetic control regulation, reporter derepression; AID 1865; Potency, µM (titrated, usually from 53.9 µM), without a hit: at the top dose GFP activation, actives largely listed as activators; murine LDR cells, GFP reporter derepression, 30 h; 280,000 tested, 0.2% active; also: % of control where 0% means no effect; nearly all actives have a fitted effect of over 60% in size
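In this reporter-derepression format, murine cells bearing a silenced integrated CMV-GFP locus incubate with test compound (30 h, 37 C), then are washed and imaged; fluorescent objects of 20–120 um count as induced cells.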
KinaseGlo FLuc – counter-screen: inhibitors of Kinase-Glo firefly luciferase; Q27757; Kinase-Glo luciferase, ATP luminescence, 8 min; 200,000 tested, 0.28% active; Potency, µM (doses to about 38.3 µM), for inactives: at the top dose activity change, negative = inhibition, actives largely listed as inhibitors; also: % is scaled to controls: 0 for no effect and ±100 for the full control effect; nearly all actives have a fitted effect of over 60% in size
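Luminescence was the read-out, taken after 8-minute incubation at ambient temperature. Luciferase turned over luciferin with 10 uM ATP in imidazole pH 7.2 buffer containing KCl, MgCl2, Tween 20 and BSA.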
SMN2 splice up – enhancers of SMN2 splice variant expression; HEK293 SMN2-luciferase splicing reporter, luminescence, 30-36 h; Potency, µM (titrated, usually from 46.1 µM), without a hit: at the top dose activity change, positive = activation, usual class: activators; 210,000 tested, 2.8% active; AID 1458; also: % of control where 0% means no effect; nearly all actives have a fitted effect of over 55% in size
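HEK293 cells carry an SMN2 minigene-luciferase reporter in which exon 7 inclusion puts luciferase in frame. Cells were seeded at 2000 cells/well, attached for 10-12 hours, then exposed to compounds for 30-36 hours at 37C before ONE-Glo luminescence.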
IMPase Li inh – cell-permeable IMPase inhibitors with lithium potentiation; 210,000 tested, 0.35% active; CHO-M1 cells, IP1 TR-FRET (IP-One), carbachol + lithium; Potency, µM (series often up to 59.4 µM), inactives show top-dose activity, negative = IMPase inhibition, usual class: inhibitors;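 also: IP1 builds up when IMPase is blocked and the TR-FRET signal falls; plate controls were basal vehicle for no effect and high inhibitor control for full effect; nearly all actives have a fitted effect of over 50% in size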
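CHO-M1, 2000 cells/well, 16–30 h culture; cpd + low Li+, 30 min 37C; lysis with d2-IP1/Eu-anti-IP1 Ab, 10 min RT; TR-FRET 665/620 ratio and 620 channel; AC50 via Hill.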
The depositor's hits bear a star; i = inactive; ? = inconclusive; / = no result given; & = joins results of further samples; [ ] = remark or other dose. Calls follow the shape of the dose curve; as a rule, active = well fitted curve in the direction sought with a large enough effect; inconclusive = small, poorly fitted or top-dose-only effect, or another doubt; inactive = no such curve, though single readings can be large; an effect the other way counts as inactive or inconclusive. Potency is read from the fitted curve at half-maximal effect. The list is partial (hit frequency here may not be typical).

smiles | RECQ1 inh | Epigenetic derep | KinaseGlo FLuc | SMN2 splice up | IMPase Li inh
COC(=O)COc1cccc(NC(=O)COc2ccccc2)c1 | -11% | -6.3% | 7% | -25% | 14%[38.3 µM]
CC(=O)C1=C(C)Nc2ncnn2C1c1cccc(OCc2ccccc2)c1 (stereo not given) | -26% | 0.8% | 1% | -20% | 21%[38.3 µM]
CC(=O)NC1C(=O)N=C(SCC(=O)Nc2sc3c(c2C#N)CCCCCC3)NC1=O (stereo not given) | i | 0.9% | -1% | 4% | -1%
O=C1C2ON(c3ccccc3)C(c3ccccn3)C2C(=O)N1c1ccc(Br)cc1 (stereo not given) | 11% | -5.9% | 2% | -9% | 1%[38.3 µM]
CC(C)CC(C(=O)N1CCOCC1)N1Cc2ccccc2C1=O (stereo not given) | -4% | -0.4% | 6% | -4% | 6%
C=CCNC(=O)N[C@@H](CCSC)C(=O)OC | -11% | 1.7% | -3% | -8% | 8%[38.3 µM]
O=S(=O)(c1ccc(F)cc1)N1CCCC(CO)C1 (stereo not given) | i | -1.1% | 1% | -15% | -1%[38.3 µM]
COc1ccc(/C(C)=N/NC(=O)c2ccc(NS(=O)(=O)c3cccs3)cc2)cc1 | 0% | 0.0% | / | / | /
Cc1ccc(OCCCC(=O)Nc2ccc(S(N)(=O)=O)cc2)cc1 | i | 1.2% | -2% | -8% | 3%
COc1ccccc1NC(=O)C1=C(C)Nc2nnnn2C1c1cccc(Br)c1 (stereo not given) | -9% | 0.0% | 8% | -6% | -5%[38.3 µM]
Cc1ccc(-c2nc(CN(C)C3CCOCC3)c(C)o2)s1 | 2% | 3.2% | -2% | / | 7%
CCOC(=O)N1CCN(C(=O)CSc2nnc(COc3ccccc3)o2)CC1 | 0% | -1.0% | -1% | 4µM* | 8%
CC1(C)Cc2ccccc2C(/C(C#N)=N/O)=N1 | -1% | -1.4% | 2% | 9% | 2%
Cc1c(NC(=O)C(C)N(c2ccccc2)S(C)(=O)=O)c(=O)n(-c2ccccc2)n1C (stereo not given) | i | 0.0% | / | / | -7%
CCOC(=O)/C(=N\O)C1=NC(C)(C)Cc2ccccc21 | i | -6.4% | 2% | 2% | -3%
CCC(=O)Nc1cccc(NC(=O)COc2ccc(OC)cc2)c1 | i | -1.2% | 1% | 15% | 7%[38.3 µM]
CC(C)Oc1cccc(C(=O)NC(=S)Nc2ccc3c4c(cccc24)CC3)c1 | -7% | -1.0% | / | / | /
CCN(CC)CCOCCOc1ccc(Cl)c2ccccc12 | i | -0.3% | -2% | 19% | -3%
COc1ccc(OC)c(NC(=O)CSc2ccc3nnc(-c4cccnc4)n3n2)c1 | -17% | -3.8% | -1% | 5% | 1%
Cc1ccccc1Nc1nc(-c2ccccc2)c(C(=O)Nc2cccnc2)s1 | -5% | 0.0% | -4% | 4% | 2%
CC1CCCC(C)N1S(=O)(=O)c1ccc(NC(=O)c2ccccc2C(=O)N2CCOCC2)cc1 (stereo not given) | -3% | -1.0% | -3% | -5% | 33%[38.3 µM]
Cc1cccc(Nc2nc(-c3ccccc3)c(C(=O)Nc3cccnc3)s2)c1 | 0% | -1.0% | 5% | -92%[inhibitor] | -27%
CC1CCCN(CC(=O)Nc2ccc(S(=O)(=O)N3CCCCCC3)cc2)C1 (stereo not given) | i | -1.0% | -4% | 0% | 48%[activator][38.3 µM]
Cc1nc(SCC2(C)CC2(Cl)Cl)n[nH]1 (stereo not given) | -2% | -1.3% | / | / | 2%
Cc1ccc(CNCc2cc3c(C(C)(C)C)nn(-c4ccccc4)c3[nH]c2=O)cc1 | -10% | 1.0% | -3% | / | 24%[38.3 µM]
COc1ccc(F)cc1CN1CCN(c2ncnc3scc(-c4ccccc4)c23)CC1 | -12% | -0.7% | / | / | /
CN(C)c1oc(/C=C/c2ccccc2)nc1C#N | -1% | 0.0% | -5% | 13µM* | -15%
COc1cccc(OCCNC(=O)CSc2ccc(C(F)(F)F)cc2[N+](=O)[O-])c1 | 6% | 4.8% | -2% | -5% | 5%
Cc1ccc(SCC(=O)Nc2ccc(S(N)(=O)=O)cc2)cc1 | -3% | -4.4% | 2% | -3% | -5%
CCN1CCN(c2oc(/C=C/c3ccccc3)nc2C#N)CC1 | -2% | 3.0% | / | / | /
CCn1c(COc2ccc(C)cc2)nnc1SCC(=O)NNC(=O)c1ccc(OC)cc1 | -2% | 0.0% | 3% | 8%[1.84 µM] | -1%
COC(=O)C1=NN(c2ccccc2)C2C(=O)N(c3ccccc3OC)C(=O)C12 (stereo not given) | -2% | -1.1% | 3% | 6% | 6%
CC1CCCN(CC(=O)Nc2ccc(S(=O)(=O)N3CCCCC3)cc2)C1 (stereo not given) | -10% | -2.0% | 1% | 9% | 14%
CCOc1ccc(N2C(=O)C3ON(c4ccccc4)C(c4ccco4)C3C2=O)cc1 (stereo not given) | 2% | -3.3% | 1% | -24% | 0%
CCc1ccc(OCc2nnc(SCC(=O)N3CCN(c4ccccc4)CC3)o2)cc1 | -5% | 1.2% | 1% | -25% | 7%
COc1ccccc1NC(=O)C1=C(C)Nc2nc3ccccc3n2C1c1cccs1 (stereo not given) | -10% | 1.1% | 3% | -9% | 5%
CN(C)S(=O)(=O)NCc1ccc2c(c1)OCO2 | -9% | 0.0% | -2% | -9% | 27%[38.3 µM]
Cc1cccc(C)c1Nc1nnc(SCC(=O)NC(=O)c2cccn2C)s1 | -12% | 0.0% | 1% | ? | 3%
CCN(c1ccccc1)S(=O)(=O)c1ccc(Cl)c(NC(=O)CN2CCCCCC2)c1 | -11% | 0.0% | / | / | /
CC1CCN(S(=O)(=O)c2ccc(NC(=O)CN3CCN(C)CC3)cc2)CC1 | 10% | -3.0% | 2% | -15% | 22%[38.3 µM]
N#Cc1c(NC(=O)CSCC(=O)O)sc2c1CCCC2 | i | -0.3% | -4% | -1% | -4%[38.3 µM]
CCc1cc(-c2n[nH]c(C)c2-c2nc3ccccc3s2)c(O)cc1OCC(=O)NN | -5% | ? | 4% | -3% | 9%
CCCc1cc2c(=O)c(-c3ccccn3)c(C)oc2cc1O | -3% | -0.9% | -3% | 0% | -4%[38.3 µM]
Nc1cccc2c1C(=O)N(C(=O)/C=C/c1cccc(Br)c1)C2=O | i | -0.8% | / | / | /
O=C(Nc1cccc(-c2nc3ccccc3o2)c1)c1cccnc1 | -9% | -2.2% | 2% | -35%[inhibitor] | 18%
COc1ccccc1C1/C(=C(/O)c2ccccc2)C(=O)C(=O)N1CC(C)O (stereo not given) | i | 0.0% | -7% | -1% | -16%[38.3 µM]
COC(=O)/C=C/c1ccc(OC(=O)OC)c(OC(=O)OC)c1 | 2% | -3.2% | 1% | 14µM* | 3%
O=C1C2ON(c3ccc(Cl)cc3)C(c3ccco3)C2C(=O)N1c1ccccc1 (stereo not given) | -12% | -0.9% | 0% | ? | 18%[38.3 µM]
COc1ccc2cc3cc(C(=O)NCCN4CCc5ccccc5C4)sc3nc2c1 | -9% | 0.1% | 0% | -2% | 6%
COc1ccc(C2SCC(C(=O)NCc3ccc(F)cc3)N2C(C)=O)cc1 (stereo not given) | 2% | -0.7% | 4% | -17% | 4%[38.3 µM]
COc1ccccc1-n1c(-c2cc(-c3ccc(F)cc3)n[nH]2)n[nH]c1=S | i | -2.5% | 0% | 10% | 1%
Cc1ccc(C(=O)NC2CCCCCC2)cc1N1CCCC1=O | i | -1.7% | -3% | 5% | -12%[38.3 µM]
C=CCn1c(CCNC(=O)c2cccs2)nnc1SCC(=O)Nc1cccc(Cl)c1C | 0% | -3.1% | 9% | -23% | 3%[38.3 µM]
CC1(C)CC2CN(C(=O)Cc3ccccc3)C(C)(C2)C1 (stereo not given) | i | 0.4% | 2% | 3% | 6%
Fc1ccc(-c2cc3nc(-c4ccccc4)cc(N4CCOCC4)n3n2)cc1 | -16% | -0.2% | 2% | 1% | 17%[38.3 µM]
Cc1cc(C)c2nc(C(F)(F)F)nc(N3CC(C)OC(C)C3)c2c1 (stereo not given) | i | -1.0% | 2% | -14% | 11%[38.3 µM]
COc1cccc(NC(=O)Nc2c(C)n(C)n(-c3ccccc3)c2=O)c1 | 11% | -1.0% | -2% | 12% | 21%[38.3 µM]
O=C(CSc1ccc(C(F)(F)F)cc1[N+](=O)[O-])NCCOc1ccccc1 | 3% | 0.0% | / | / | /
COc1ccc(C2NC(c3ccc(OC)cc3OC)C(C)C(=O)C2C)c(OC)c1 (stereo not given) | i | -1.1% | 2% | -4% | 8%
Fc1cccc(Cc2noc(CN3CCOCC3)n2)c1 | -11% | -0.2% | / | / | -4%

Other results follow:
smiles | RECQ1 inh | Epigenetic derep | KinaseGlo FLuc | SMN2 splice up | IMPase Li inh
CCn1c(CNC(=O)COc2ccc(C(C)C)cc2)nnc1SCC(=O)Nc1ccccc1 | 6% | -1.5% | -2% | -7% | 36%[activator][38.3 µM]
Cc1nn2c(-c3ccccc3)ccnc2c1-c1ccccc1 | -11% | -1.6% | 0% | -21% | 50%[activator][38.3 µM]
CC1(C)NC(=O)N(CNc2cc(Cl)ccc2Cl)C1=O | -9% | 0.0% | -1% | -27% | 22%[38.3 µM]
COc1ccc(-c2cc(-c3n[nH]c(=S)n3-c3cc(OC)ccc3OC)[nH]n2)cc1 | i | -1.9% | -2% | ? | -3%
Cc1nc2cc(F)ccc2n1C1CCN(S(=O)(=O)c2ccccc2)CC1 | -7% | -0.1% | -1% | 4% | 21%[38.3 µM]
COC(=O)c1cccc(CN2C(=O)SC(Nc3ccc(C)cc3)C2=O)c1 (stereo not given) | i | -0.3%&1.8% | / | -8% | /
COc1cc(/C=C(/C#N)c2nc3ccccc3[nH]2)ccc1OCC(=O)Nc1ccccc1C(C)C | 13% | 20% | -2% | -83%[inhibitor] | -10%[38.3 µM]
COc1ccc(Nc2ncccc2C(=O)Nc2ccccc2)cc1 | -5% | -2.2% | -4% | 9% | 32%[activator][38.3 µM]
N#CC(c1ccccc1F)(c1ncc(C(F)(F)F)cc1Cl)N1CCOCC1 (stereo not given) | -6% | 0.0% | 0% | 14% | 7%[38.3 µM]
CCOc1cc(S(=O)(=O)NCCN2CCOCC2)c(C)cc1C | -5% | -2.9% | -1% | 12% | 11%[38.3 µM]
CC1=C(C(=O)Nc2cccnc2)C(c2ccncc2)n2nnnc2N1 (stereo not given) | 3% | -0.1% | 1% | -3% | 8%[38.3 µM]
